ugtP null kill: growth inhibition of ugtP-null S. aureus, primary screen, RN4220 ugtP deletion, OD600. 16 h; some inactives read as strong as hits. growth inhibition, % (concentration not given with the values). 0.54% of 330,000 active;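 active means z-score under -3 and OD600 up to 0.15 on both plates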;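 further: plate controls were untreated wells for no effect and antibiotic for full effect; wells of about 80 µL received 100 nL stock; the first replicate is given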
PrP UTR inh: inhibition of PrP 5' UTR reporter expression. cell-based PrP 5' UTR mRNA reporter, plate reader. 0.35% of 340,000 active. inhibition, % (test concentration not listed);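 active means every replicate at 50% or more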;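 further: 0 = median of the neutral control wells; tested in H4 reporter cells; numbers are from one replicate; inactives centre near -14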
Sa RN4220 lethal: growth inhibition of S. aureus RN4220, primary screen, OD600. 16 h. inhibition, % (no concentration beside the values). 0.33% of 330,000 active;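 active means z-score of -3 or lower and OD600 up to 0.18 on both plates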;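 further: plate controls were untreated cells for no effect and reference antibiotic for full effect; stock transfer was 100 nL into about 80 µL; one replicate is shown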
BJeLR lethal: MLPCN primary cell-based screen for lethality selective to Ras in HRASV12 cells | BJeLR (HRASV12) viability, CellTiter-Glo ATP luminescence, 48 h; reference of the scale not given here | inhibition, % (concentration not given with the values) | 0.17% of 300,000 active;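 active means replicate mean above 50%; inconclusive means above 50% but judged a plate artefact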;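 further: 50 nL library stock added to about 25 µL; numbers are from one replicate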
Autofluor counter: flagged as autofluorescent in microsphere protease counterscreen; compound autofluorescence counterscreen, microsphere flow cytometry; stronger effect = higher value; fluorescence intensity (concentration not given with the values); 3.1% of 360,000 active;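 active means at least 3 SD above the mean of all compounds, about 16000 in these data; inconclusive means too few beads counted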;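 further: 100 nL of 1 mM stock went into each well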
Mtb hypoxia rep: PubChem AID 1159583; fluorescence inhibition, % (test concentration not listed); 0.1% of 300,000 active; M. tuberculosis hypoxia-regulated fluorescent reporter, fluorescence;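 active means 35 to 45% if threefold the growth effect, above 45% if 1.5-fold the growth effect; inactive means the rest, general growth blockers included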;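 further: wells of about 50 µL received 100 nL stock; 0% = vehicle wells and 100% = reference inhibitor wells; whole bacteria with a GFP reporter of the hypoxia response; strong numbers were not always called active; many hits fall short of the cut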
Mtb hypoxia rep growth: further read-out of Mtb hypoxia rep, marked with its call; growth inhibition, %; measured here: M. tuberculosis growth (absorbance);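 0% = vehicle and 100% = reference antibiotic; read after six days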
Active calls of the source: *; & = joins results of further samples.

Screening CCCCCCSc1ccc([C@H]2N[C@@](Cc3ccccc3)(C(=O)OC)[C@H]3C(=O)N(C)C(=O)[C@@H]23)cc1OC returned PrP UTR inh -34, BJeLR lethal -4 and Autofluor counter 4090.
COCCNC(=O)CSc1nc2cc(OC)c(OC)cc2c(=O)n1Cc1ccc(OC)cc1 was read as PrP UTR inh -33, BJeLR lethal 8 and Autofluor counter 22751*.
O=C1CCN(Cc2ccccc2)C=C1C(=O)c1ccccc1 was read as ugtP null kill 2, PrP UTR inh -25, Sa RN4220 lethal 2.2, Autofluor counter 3492, Mtb hypoxia rep -3 and Mtb hypoxia rep growth 2.
For CCOc1ccc2nc(NCCNC(=O)c3cc(OC)c(OC)c(OC)c3)c(C#N)cc2c1 the results were ugtP null kill 6, PrP UTR inh -25, Sa RN4220 lethal 4.1, BJeLR lethal 2, Autofluor counter 3845, Mtb hypoxia rep 10 and Mtb hypoxia rep growth 0.
Cc1ccc(OCC(=O)N2CCCCC2C)c([N+](=O)[O-])n1 (configuration not stated) was read as ugtP null kill 1, PrP UTR inh -16, Sa RN4220 lethal 2.1, Autofluor counter 3381, Mtb hypoxia rep 8 and Mtb hypoxia rep growth 6.
`CCCCCc1cc(=O)oc2c(C(CCN3CCN(c4ccccc4)CC3)c3ccc4c(c3)OCO4)c(OC)cc(OC)c12` (configuration not stated) gave ugtP null kill -4, PrP UTR inh -24, Sa RN4220 lethal 4.2, BJeLR lethal 1, Autofluor counter 3178, Mtb hypoxia rep 10 and Mtb hypoxia rep growth 13.
`O=C(CN1C(=O)CCS(=O)(=O)c2ccccc21)Nc1ccccc1F` gave ugtP null kill 5, PrP UTR inh -8, Sa RN4220 lethal 4.6, BJeLR lethal 8, Autofluor counter 6090, Mtb hypoxia rep 5 and Mtb hypoxia rep growth 1.
Brc1ccc(CN2CCN(c3ccccc3)CC2)o1 was read as ugtP null kill 14, PrP UTR inh -42, Sa RN4220 lethal 7.4, BJeLR lethal 8, Autofluor counter 3731, Mtb hypoxia rep 2 and Mtb hypoxia rep growth 10.
O=C1c2[nH]c(=O)[nH]c(=O)c2CN1Cc1ccccc1 was read as ugtP null kill 3, PrP UTR inh -27, Sa RN4220 lethal 2.7, Autofluor counter 4203, Mtb hypoxia rep 7 and Mtb hypoxia rep growth 13.
For COc1ccc(-c2cnc3nc(/N=C/N(C)C)nn3c2/N=C/N(C)C)cc1 the results were PrP UTR inh -9, BJeLR lethal 0 and Autofluor counter 3513.
Nc1c(C(=O)CSc2nnc(COc3ccc(Cl)cc3)o2)c(=O)[nH]c(=O)n1C1CC1 was read as ugtP null kill 3, PrP UTR inh -23, Sa RN4220 lethal -0.5, Autofluor counter 8611, Mtb hypoxia rep 3 and Mtb hypoxia rep growth 0.
`CC1CN(C(=O)C2CC(=O)N(c3ccc(Cl)cc3)C2)CC(C)O1` (configuration not stated) gave ugtP null kill 4, PrP UTR inh -5, Sa RN4220 lethal 2.0, BJeLR lethal -3, Autofluor counter 3608, Mtb hypoxia rep -1 and Mtb hypoxia rep growth -4.
Screening NC(=O)C1(NC(=O)C2CC3(CC(c4cccc(NC(=O)c5cc([N+](=O)[O-])cc([N+](=O)[O-])c5)c4)=NO3)CN2C(=O)c2ccccc2)CC1 (configuration not stated) returned ugtP null kill -5, Sa RN4220 lethal -2.4, Mtb hypoxia rep 22 and Mtb hypoxia rep growth 22.
`O=C(OCc1cc(=O)c(OC(=O)c2ccccc2)co1)c1ccccc1` gave ugtP null kill 2, PrP UTR inh -31, Sa RN4220 lethal 5.0, Autofluor counter 4066, Mtb hypoxia rep 8 and Mtb hypoxia rep growth 14.
O=C(CN(Cc1ccco1)C(=O)c1ccc(F)cc1F)Nc1ccccc1C(F)(F)F was read as ugtP null kill 5, PrP UTR inh -11, Sa RN4220 lethal 1.3, Autofluor counter 6714, Mtb hypoxia rep -6 and Mtb hypoxia rep growth -8.
Screening COc1ccc(NC(=O)CN(C)C(=O)C2CC(=O)N(Cc3ccc(C)cc3)C2)cc1 (configuration not stated) returned ugtP null kill 10, PrP UTR inh -6, Sa RN4220 lethal 1.7, BJeLR lethal 5, Autofluor counter inconclusive, Mtb hypoxia rep 7 and Mtb hypoxia rep growth 4.
COc1ccc(N(CC(=O)Nc2ccccc2Cl)S(=O)(=O)c2ccc(C)cc2)cc1OC was read as ugtP null kill 0, PrP UTR inh -15, Sa RN4220 lethal 4.7, BJeLR lethal -3, Autofluor counter 3798, Mtb hypoxia rep -11 and Mtb hypoxia rep growth -6.
Cc1cc2cc(C)c3nnc(SCC(=O)NCc4ccco4)n3c2cc1C was read as ugtP null kill 27, PrP UTR inh -4, Sa RN4220 lethal 0.8, BJeLR lethal -5, Autofluor counter 7403, Mtb hypoxia rep 0 and Mtb hypoxia rep growth -2.
COC(=O)C1=C(c2ccc(S(C)(=O)=O)cc2)CC2CCC1N2C(=O)NCc1ccccc1 (configuration not stated) was read as ugtP null kill 2, Sa RN4220 lethal 4.1, Mtb hypoxia rep 12 and Mtb hypoxia rep growth 5.
Screening Cc1cc2cc(CNC(=O)c3cccs3)ccc2n1C returned ugtP null kill 2, PrP UTR inh -30, Sa RN4220 lethal 6.2, BJeLR lethal -6, Autofluor counter 1271, Mtb hypoxia rep -5 and Mtb hypoxia rep growth -1.
`COc1ccccc1N(CC(O)CN1CCOCC1)S(=O)(=O)c1ccccc1` (configuration not stated) gave ugtP null kill 4, PrP UTR inh -12, Sa RN4220 lethal 4.1, BJeLR lethal 0, Autofluor counter 4300, Mtb hypoxia rep 15 and Mtb hypoxia rep growth 7.
c1ccc2c(c1)nc(CN1CCOCC1)n1c3ccccc3nc21 was read as ugtP null kill 0, PrP UTR inh 3, Sa RN4220 lethal 2.6, BJeLR lethal 12, Autofluor counter 3237, Mtb hypoxia rep 5 and Mtb hypoxia rep growth 4.
Screening CC(=O)Nc1cccc(NC(=O)c2c(-c3ccccc3Cl)noc2C)c1 returned ugtP null kill 3, PrP UTR inh -8, Sa RN4220 lethal 7.0, BJeLR lethal -2, Autofluor counter 8139, Mtb hypoxia rep 10 and Mtb hypoxia rep growth 5.
For Cc1ccc(C(=O)N2CC(=O)Nc3ccc(F)cc3C2c2ccccc2)cc1 (configuration not stated) the results were ugtP null kill 1, PrP UTR inh 8, Sa RN4220 lethal 0.3, BJeLR lethal -3, Autofluor counter 3066, Mtb hypoxia rep 3 and Mtb hypoxia rep growth -3.
Screening CSc1ccccc1NC(=O)CON=C(C)c1cc2ccccc2o1 returned ugtP null kill 20, Sa RN4220 lethal 1.0, Mtb hypoxia rep 10 and Mtb hypoxia rep growth 5.
For O=c1[nH]c(SCc2ccc(Cl)cc2)nc2ccsc12 the results were ugtP null kill 1, Sa RN4220 lethal 5.4, BJeLR lethal -2, Mtb hypoxia rep 16 and Mtb hypoxia rep growth -11.
For CCC(=O)Oc1cccc(C(=O)Nc2cccc(NC(=O)c3ccco3)c2)c1 the results were ugtP null kill -1, PrP UTR inh -10, Sa RN4220 lethal -0.8, BJeLR lethal 10, Autofluor counter 5944, Mtb hypoxia rep -7 and Mtb hypoxia rep growth 6.
COc1cc(NC(=O)c2nccnc2N)cc(C(=O)Nc2cccc(C(F)(F)F)c2)c1 was read as ugtP null kill 2, PrP UTR inh -9, Sa RN4220 lethal 3.2, BJeLR lethal -1, Autofluor counter 2885&3589, Mtb hypoxia rep 16 and Mtb hypoxia rep growth 2.
`COc1ccc(NC(=O)CN2CCC(C(N)=O)CC2)cc1` gave ugtP null kill 3, PrP UTR inh 6, Sa RN4220 lethal -1.8, BJeLR lethal -2, Autofluor counter 4665, Mtb hypoxia rep -2 and Mtb hypoxia rep growth 6.
`CN(C)S(=O)(=O)c1cccc(NC(=O)c2ccc(S(=O)(=O)N3CCCC3)cc2)c1` gave ugtP null kill 8, PrP UTR inh -15, Sa RN4220 lethal 5.0, BJeLR lethal -3, Autofluor counter 4243, Mtb hypoxia rep -2 and Mtb hypoxia rep growth -3.
CC(=O)c1ccc(NC(=O)CCc2nc3sc4c(c3c(=O)[nH]2)CCCC4)cc1 was read as ugtP null kill 1, PrP UTR inh -12, Sa RN4220 lethal 3.1, BJeLR lethal -5, Autofluor counter 6430, Mtb hypoxia rep -15 and Mtb hypoxia rep growth -5.
`C=CCC1CCCCC12NC(=O)N(c1ccccc1)N2` (configuration not stated) gave ugtP null kill 7, PrP UTR inh -12, Sa RN4220 lethal 3.9, BJeLR lethal -12, Mtb hypoxia rep 15 and Mtb hypoxia rep growth -6.
O=C(COC(=O)c1cccnc1)c1ccc(Cl)c(Cl)c1 was read as ugtP null kill -1, PrP UTR inh -18, Sa RN4220 lethal 2.3, BJeLR lethal 8, Autofluor counter 3431, Mtb hypoxia rep 7 and Mtb hypoxia rep growth 8.
c1ccc(-n2nnnc2NC2CCCCC2)cc1 was read as ugtP null kill 8, PrP UTR inh -12, Sa RN4220 lethal 3.5, BJeLR lethal 8, Autofluor counter 8408, Mtb hypoxia rep 7 and Mtb hypoxia rep growth -2.
`Cc1ccc(-c2nn(-c3ccccn3)c(=O)c3ccccc23)cc1C` gave ugtP null kill 5, PrP UTR inh -18, Sa RN4220 lethal -0.7, BJeLR lethal -5, Autofluor counter 6351, Mtb hypoxia rep 6 and Mtb hypoxia rep growth 7.
`COc1ccc(OC)c(NC(=O)CSc2nc3ccccc3c(=O)n2CCNC(C)=O)c1` gave ugtP null kill -9, PrP UTR inh -20, Sa RN4220 lethal 4.9, BJeLR lethal -1, Autofluor counter 20543*, Mtb hypoxia rep 16 and Mtb hypoxia rep growth 7.
For O=C(Nc1cccc2ccccc12)/C(=C/c1cccc([N+](=O)[O-])c1)NC(=O)c1cccs1 the results were ugtP null kill 8, PrP UTR inh -30, Sa RN4220 lethal 1.6, BJeLR lethal -11, Autofluor counter 7142, Mtb hypoxia rep -3 and Mtb hypoxia rep growth -1.
CC(=O)c1cccc(S(=O)(=O)N2CCN(c3ccccc3F)CC2)c1 was read as ugtP null kill 15, PrP UTR inh -15, Sa RN4220 lethal 1.8, BJeLR lethal 4, Autofluor counter 4595, Mtb hypoxia rep 7 and Mtb hypoxia rep growth 8.
`COc1ccc2c([N+](=O)[O-])c(N3CCCC3)[nH]c2c1` gave ugtP null kill 8, PrP UTR inh -25, Sa RN4220 lethal 3.0, BJeLR lethal 2, Autofluor counter 3949, Mtb hypoxia rep 3 and Mtb hypoxia rep growth 10.
O=C(Cc1cn2ccsc2n1)Nc1cccc2cnccc12 was read as ugtP null kill -1, PrP UTR inh -24, Sa RN4220 lethal -9.3, BJeLR lethal -4, Autofluor counter 3194, Mtb hypoxia rep 8 and Mtb hypoxia rep growth 7.
`CC1(C2CC2)NC(=O)N(CC(=O)Nc2ccccc2-c2ccccc2)C1=O` (configuration not stated) gave ugtP null kill 0, PrP UTR inh -18, Sa RN4220 lethal 0.8, BJeLR lethal 0, Autofluor counter 4283, Mtb hypoxia rep 9 and Mtb hypoxia rep growth -1.
For CCOC(=O)c1cnc2ccc(OCC)cc2c1N1CCN(c2ccccc2OC)CC1 the results were ugtP null kill -39, PrP UTR inh 3, Sa RN4220 lethal -0.7, BJeLR lethal -12, Autofluor counter 9404, Mtb hypoxia rep -86 and Mtb hypoxia rep growth -15.
Screening CCCc1c(C)c(C#N)c2nc3ccccc3n2c1NCCCN1CCOCC1 returned ugtP null kill -6, PrP UTR inh -1, Sa RN4220 lethal 0.9, BJeLR lethal -1, Autofluor counter 10313, Mtb hypoxia rep 1 and Mtb hypoxia rep growth 5.
CC(C)c1ccc(C(=O)NCCCNC(=O)c2cnccn2)cc1 was read as PrP UTR inh 7, BJeLR lethal -7 and Autofluor counter 4923.

Gathered by group, the compounds so far with a thiophene ring, fused or not (4)
Screening Cc1cc2cc(CNC(=O)c3cccs3)ccc2n1C returned ugtP null kill 2, PrP UTR inh -30, Sa RN4220 lethal 6.2, BJeLR lethal -6, Autofluor counter 1271, Mtb hypoxia rep -5 and Mtb hypoxia rep growth -1.
For O=c1[nH]c(SCc2ccc(Cl)cc2)nc2ccsc12 the results were ugtP null kill 1, Sa RN4220 lethal 5.4, BJeLR lethal -2, Mtb hypoxia rep 16 and Mtb hypoxia rep growth -11.
CC(=O)c1ccc(NC(=O)CCc2nc3sc4c(c3c(=O)[nH]2)CCCC4)cc1 was read as ugtP null kill 1, PrP UTR inh -12, Sa RN4220 lethal 3.1, BJeLR lethal -5, Autofluor counter 6430, Mtb hypoxia rep -15 and Mtb hypoxia rep growth -5.
For O=C(Nc1cccc2ccccc12)/C(=C/c1cccc([N+](=O)[O-])c1)NC(=O)c1cccs1 the results were ugtP null kill 8, PrP UTR inh -30, Sa RN4220 lethal 1.6, BJeLR lethal -11, Autofluor counter 7142, Mtb hypoxia rep -3 and Mtb hypoxia rep growth -1.

Screening results from PubChem BioAssay.
